ugtP null kill = growth inhibition of S. aureus ugtP deletion strain | S. aureus RN4220 ugtP deletion, OD600 growth, 16 h; some inactives read as strong as hits | growth inhibition, % (no concentration beside the values) | 330,000 compounds, 0.54% hits;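 active means z-score under -3 and OD600 up to 0.15 on both plates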;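 further: plate controls were untreated wells for no effect and antibiotic for full effect; wells of about 80 µL received 100 nL stock; the first replicate is given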
PrP 5UTR inh = suppresses PrP 5' UTR mRNA reporter expression; AID 488862; inhibition, % (no concentration beside the values); cell-based PrP 5' UTR mRNA reporter, plate reader; 340,000 compounds, 0.35% hits;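 active means every replicate at 50% or more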;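 further: 0 = median of the neutral control wells; tested in H4 reporter cells; numbers are from one replicate; inactives centre near -14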
Sa RN4220 lethal = S. aureus RN4220 growth inhibition; AID 1259311; inhibition, % (no concentration beside the values); OD600, 16 h; 330,000 compounds, 0.33% hits;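 active means z-score of -3 or lower and OD600 up to 0.18 on both plates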;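 further: plate controls were untreated cells for no effect and reference antibiotic for full effect; stock transfer was 100 nL into about 80 µL; one replicate is shown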
Bead autofluor = flagged as autofluorescent in microsphere protease counterscreen; compound autofluorescence counterscreen, microsphere flow cytometry; active compounds read high; fluorescence intensity (no concentration beside the values); 360,000 compounds, 3.1% hits; AID 624483;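 active means at least 3 SD above the mean of all compounds, about 16000 in these data; inconclusive means too few beads counted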;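 further: 100 nL of 1 mM stock went into each well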
Mtb hypoxia rep = Mtb hypoxia fluorescent reporter inhibition | M. tuberculosis hypoxia-regulated fluorescent reporter, fluorescence | fluorescence inhibition, % (concentration not given with the values) | 300,000 compounds, 0.1% hits;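 active means 35 to 45% if threefold the growth effect, above 45% if 1.5-fold the growth effect; inactive means the rest, general growth blockers included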;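 further: wells of about 50 µL received 100 nL stock; 0% = vehicle wells and 100% = reference inhibitor wells; whole bacteria with a GFP reporter of the hypoxia response; strong numbers were not always called active; many hits fall short of the cut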
BJeLR viability = kills HRASV12-expressing BJeLR cells; BJeLR (HRASV12) viability, CellTiter-Glo ATP luminescence, 48 h; reference of the scale not given here; inhibition, % (no concentration beside the values); 300,000 compounds, 0.17% hits; AID 1554;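 active means replicate mean above 50%; inconclusive means above 50% but judged a plate artefact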;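 further: 50 nL library stock added to about 25 µL; numbers are from one replicate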
Mtb hypoxia rep growth = recorded beside Mtb hypoxia rep, whose call it bears; growth inhibition, %; measured here: M. tuberculosis growth (absorbance);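 0% = vehicle and 100% = reference antibiotic; read after six days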
Numbers without * were called inactive; ? = inconclusive; / = not tested or not shown; & = joins results of further samples.

Compound,ugtP null kill,PrP 5UTR inh,Sa RN4220 lethal,Bead autofluor,Mtb hypoxia rep,Mtb hypoxia rep growth,BJeLR viability
COC(=O)c1noc(C)c1-c1ccnn1C(=O)c1ccc(Cl)cc1,-5,-3,-1.4,4478,-6,7,-5
COc1ccc(-c2nc(CS(=O)(=O)CC(=O)NC3CCCCCC3)c(C)o2)cc1,1,2,2.4,5775,-6,-1,-4
CSc1nc(C)cc(-n2ccc(=O)[nH]c2=O)n1,5,/,1.2,7783,9,2,16
Cc1nnc(NC(=O)c2cc(-c3ccco3)nc3ccccc23)s1,/,-30,/,?,/,/,-1
CC(C)CNC(=O)c1coc(=O)c(Br)c1,5,-25,3.5,8945,15,6,3
Cc1nnc(NC(=O)CCCCCN2C(=O)C3C4C=CC(C4)C3C2=O)s1 (stereo unspecified),-13,-60,6.3,5066,1,6,-3
CCCCCC=NNC(=O)Cc1ccc([N+](=O)[O-])cc1,5,/,4.0,/,5,1,/
O=C(c1ccc(Br)o1)N1CCN(c2ccc3nnc(-c4ccccc4)n3n2)CC1,6,-14,6.2,4220,8,8,21
O=[N+]([O-])c1ccccc1/C=C/CN1CCN(Cc2ccc3c(c2)OCO3)CC1,2,-11,0.0,3425,5,-5,8
Cc1ccsc1C(=O)NNC(=O)C1CCCCC1C(=O)O (stereo unspecified),5,-29,1.6,4820,/,/,0
CCCn1c(=S)[nH]c2cc(Cl)ccc21,6,-6,2.6,3660,7,9,3
CN(C)C(CNS(=O)(=O)c1ccc(Cl)cc1)c1cccnc1 (stereo unspecified),-6,18,-11,6563,5,-3,-5
CCC1CN(C(=O)N2CCC(C(=O)NCc3cccc(F)c3)CC2)c2ccccc2O1 (stereo unspecified),12,-11,-3.5,5260,6,-1,0
CC(C(=O)Nc1cccc([N+](=O)[O-])c1)N1CCN(C/C=C/c2ccccc2)CC1 (stereo unspecified),5,1,4.0,7805,17,-2,-1
CCOc1ccc(NC(=O)N2C[C@H]3C[C@@H](C2)c2cccc(=O)n2C3)cc1,-11,23,6.5,6028,/,/,12
COC(=O)c1cccc(-n2c(CCC(=O)O)ccc2-c2cccs2)c1,14,-6,4.2,4192,6,5,6
Cc1onc(-c2ccccc2)c1C(=O)Nc1sc2c(c1C#N)CCC(C)C2 (stereo unspecified),-4,-15,11,10067,11,6,-15
CCCCNC(=S)NNC(=O)c1cc(-c2cccnc2)nc2ccccc12,-14,2,-2.2,5537,-3,10,-19
c1ccc(-c2nc(NCCCn3ccnc3)c3ccccc3n2)cc1,/,3,/,4458,/,/,0
Cc1ccc(C2C3C(=O)N(c4ccccc4)C(=O)C3[C@]3(C)C(=O)N(Cc4ccc(-c5ccccc5)cc4)CC(=O)N23)o1 (stereo partly specified),6,/,7.6,/,16,10,/
O=C(NNC(=O)C12CC3CC(CC(C3)C1)C2)c1cnccn1,3,-16,1.6,10857,10,4,-6
C#CCNC(=O)C1=C[C@H](c2coc3ccccc3c2=O)[C@@H](CCCO)[C@H](OCC)O1,/,3,/,2972,/,/,-5
CNc1cc(N2CCCC2)ccc1[N+](=O)[O-],-6,-15,7.3,2627,13,5,-5
Cc1cc(C(=O)COC(=O)c2ccc[nH]c2=O)c(C)n1-c1ccc(F)cc1,0,26,3.5,2085,0,-3,8
Clc1ccc(-c2cc(-c3nnc4n3CCCCC4)c3ccccc3n2)cc1,2,-19,4.7,2062,-1,6,0
O=C1CNC(=S)N1CCc1ccc(O)c(O)c1,9,/,6.2,5563,7,17,4
Cc1ccc(Cc2nc(-c3cccc(C)c3)no2)cc1,34,-11,5.8,5592,2,-6,-4
COc1ccc(-c2nnn(CC#N)n2)cc1OC,9,-15,6.9,3895,/,/,-2
COc1ccc([N+](=O)[O-])cc1NC(=O)COC(C)=O,5,-2,3.5,4524,2,1,12
Cc1cccc(NC(=O)C2Cc3ccccc3CN2C(=O)OCc2ccccc2)c1C (stereo unspecified),-2,-11,2.0,2562,2,11,-1

Record cards, as listed above:
Cc1ccc(Cc2nc(-c3cccc(C)c3)no2)cc1 as listed: ugtP null kill = 34; PrP 5UTR inh = -11; Sa RN4220 lethal = 5.8; Bead autofluor = 5592; Mtb hypoxia rep = 2; Mtb hypoxia rep growth = -6; BJeLR viability = -4
CN(C)C(CNS(=O)(=O)c1ccc(Cl)cc1)c1cccnc1 (stereo unspecified) as listed: ugtP null kill = -6; PrP 5UTR inh = 18; Sa RN4220 lethal = -11; Bead autofluor = 6563; Mtb hypoxia rep = 5; Mtb hypoxia rep growth = -3; BJeLR viability = -5

The results go on:
Compound,ugtP null kill,PrP 5UTR inh,Sa RN4220 lethal,Bead autofluor,Mtb hypoxia rep,Mtb hypoxia rep growth,BJeLR viability
COc1ccc(C(=O)/C=C/c2ccc(OC)c(COc3ccccc3F)c2)cc1,10,4,-6.8,2469,9,4,-4
CCN(CCn1cccn1)C(=O)c1cc(COc2cc(C)ccc2C)on1,13,-70,8.8,6036,13,-9,-8
N#CC(=NCc1cccnc1)C1=C(O)c2ccccc2C1=O,1,2,2.4,4382,-2,13,-10
COCCNC(=S)N/N=C(\C)c1ccc(-n2ccnc2)cc1,/,-105,/,10766,/,/,11
CC(C)Oc1ccccc1-c1cc(C(=O)N/N=C/c2cccnc2)c2ccccc2n1,/,-4,/,6099,/,/,12
Cc1cc(C(=O)OC2C(C)NS(=O)(=O)C3CC4C=C[C@]23O4)cc([N+](=O)[O-])c1 (stereo partly specified),1,/,4.8,/,-2,1,/
COc1ccccc1C(=O)Nc1ccc(C(=O)/C=C/c2cccs2)cc1,2,-18,13,7239,14,3,0
CCCc1cc(=O)oc2c(C)c(OCC(=O)c3ccc(N4CCCC4)cc3)ccc12,-11,-26,2.5,2650,-2,4,/
Cc1cccc(C)c1N1CCN(C(=O)N2CCCCC2)CC1,7,-6,-0.8,4376,5,6,-5
Oc1ccc(-c2csc(-c3ccccc3)n2)cc1O,-22,-132,-6.5,11430,6,-3,2
COc1ccc(Cc2nn3c(-c4ccccc4OC)nnc3s2)cc1,-1,-8,1.9,8682,15,14,3
COc1ccc(Nc2ncc(C(=O)N3CCN(Cc4ccccc4)CC3)c3ccccc23)cc1,-2,-16,-1.7,4067,6,1,-7
COC(=O)CN(n1cnnc1)S(=O)(=O)c1ccc(C)cc1,8,-18,-2.5,4458,/,/,2
CC1=C(C)CC(C(=O)N2CCN(Cc3ccccc3)CC2)C(C(=O)O)C1 (stereo unspecified),12,-26,-1.3,9946,7,8,-8
O=C(O)c1ccc2c(=O)n(Cc3ccccc3)c(SCc3ccc([N+](=O)[O-])cc3)nc2c1,-4,-21,-4.9,3759,4,7,-4
COc1cccc(NC(=O)C(=O)NCCCn2ccnc2)c1,5,-13,2.4,4308,-4,-2,2
COc1cc(CCCN2C(N)=NCC2Cc2ccc(O)cc2)cc(OC)c1OC (stereo unspecified),-1&-1,/,2.3&1.5,/,-4&-25,1&-5,/
CCn1nc(C)c(NS(=O)(=O)c2ccccc2)c1C,2,-16,4.0,4282,10,2,0
O=C(c1cc(-n2cnnc2)ccc1Cl)N1CCN(c2nc(-c3ccccc3)cs2)CC1,13,-6,-5.8,2115,/,/,-9
CC1OC(OC2C(OC3C[C@]4(C)C(CC(O)C5C([C@]6(C)CCC(C(C)(C)O)O6)CC[C@]54C)[C@@]4(C)CCC(O)C(C)(C)C34)OC(CO)C(O)C2O)C(O)C(O)C1O (stereo partly specified),5&-11,/,4.3&4.5,/,4&8,-1&8,/
O=C1CN(C(=O)CCCc2c[nH]c3ccccc23)c2ccccc2N1,-3,-3,-2.9,3333,8,9,6
Cc1cc(C)cc(OCC(=O)OCC(=O)NC2CCCC2)c1,5,/,4.6,/,15,5,/
Brc1ccc(OCc2nc3ccccc3[nH]2)cc1,-6,-87,-2.7,3593,-7,3,0
CCOc1ccc(NS(=O)(=O)c2ccc(OCC(=O)N3CCCC3)cc2)cc1,0,-26,0.7,5513,-1,-2,-2
CCOC(=O)c1[nH]c2cc3c(cc2c1NC(=O)CN1CC(C)CC(C)C1)OCO3 (stereo unspecified),-13,-16,3.6,4473,5,9,-5
O=C(COC(=O)COc1cccc(Br)c1)NCc1ccc2c(c1)OCO2,4,-13,1.7,3502,6,9,/
CCOc1ncccc1C(=O)Nc1ccc2c(c1)OCCO2,8,-14,2.2,3496,5,14,/
CCN1CCN(c2ccc(S(=O)(=O)N3CCOCC3)cc2NC(=O)CC(C)C)CC1,3,-16,1.7,9685,6,4,/
COc1cccc(C(=O)NCCS(=O)(=O)N2CCCCCC2)c1,/,-1,/,5654,/,/,9
CCCn1nnnc1NC(=O)COc1ccc(Cl)c(C)c1,1,-38,5.7,2528,9,1,-4
O=C(NCc1ccc(Cl)cc1)c1cnccn1,3,-5,-3.0,4885,/,/,-5
CCOC(=O)c1cccc(-n2c(C)cc(C=O)c2C)c1,6,-13,-0.7,2245,20,8,-5
Cc1ccc(N=C2NC(=O)c3cc([N+](=O)[O-])ccc32)cc1,0,-25,0.4,2153,3,4,2
O=C(NCc1ccc(Cl)cc1)C1CCN(S(=O)(=O)c2cccc3nonc23)CC1,9,-3,0.8,5794,1,3,-12
Cc1ccc(NC(=O)CCc2nnc3ccc(NCc4ccco4)nn23)cc1F,5,-12,-3.2,5946,-5,-2,4
Cc1ccc(S(=O)(=O)CCC(=O)Nc2nnc(-c3ccc(F)cc3)o2)cc1,1,0,-1.1,6312,10,6,4
O=C(CCc1nnc(C2(c3ccc(Cl)cc3)CCC2)o1)N1CCCC1,12,-47,1.7,4562,8,2,4
COc1ccc(CC(=O)Nc2cccc(C(=O)Nc3ccccc3C(=O)O)c2)cc1OC,0,-19,-0.7,2196,1,1,17
COc1cccc(N(C(=O)c2snc(C(N)=O)c2N)C(C(=O)NCC2CCCO2)c2cccs2)c1 (stereo unspecified),-3,-11,3.8,3918,0,-2,-10
CC(C)c1cc2cc3ccc(=O)oc3cc2o1,6,-33,8.1,3467,-4,7,2
CCOc1nc(N(C)C)nc(-n2nnc(C(C)=O)c2C)n1,1,5,0.3,3001,/,/,7
CCOC(=O)C[C@H]1c2ccc(C(F)(F)F)cc2S(=O)(=O)N1c1ccccc1,/,-8,/,4128,/,/,7
Cc1ccc(C)c(C(=O)CC2(O)C(=O)N(C)c3ccccc32)c1 (stereo unspecified),-2,-24,3.9,7973,4,7,3
CCCC1=Nc2cc(C(=O)NCCN3CCCC3)ccc2Sc2ccccc21,4,-6,-3.2,6545,6,1,-1
O=C(Cc1cc(C(=O)O)c2ccccc2n1)Nc1ccccc1,4,-26,6.9,3237,-2,5,0
Cc1ccc(N(C(=O)c2csnn2)C(C(=O)NC2CCCCC2)c2cccnc2)cc1C (stereo unspecified),5,-11,2.8,3639,-7,10,2
N#Cc1ccccc1OCC(=O)OCC(=O)NC1CCCCC1,14,-23,3.5,/,2,4,/
O=C(CCCN1CCOCC1)c1ccc2c(c1)OCCO2,5,-70,7.1,11102,3,2,-4
COc1ccc(Cl)cc1NC(=O)CN1CCc2ccccc2C1,0,-70,-2.9,3861,8,5,-1
COc1cccc(Cl)c1NC(=O)N1CCN(c2cc(C)nc3ccccc23)CC1,-3,12,-4.2,6431,3,15,12
COc1cccc(C=Nn2c(-c3cc(C)[nH]n3)n[nH]c2=S)c1O,3,/,2.3,/,4,-11,/
CC(=NN=C1SCC(=O)N1c1ccccc1)c1ccc(C)cc1,-7,/,-0.5,/,-15,-3,/
Nc1cc(=O)n(Cc2ccccc2)c(=O)n1-c1ccc(F)cc1,7,-7,-0.1,4486,-1,2,3
COCc1cc(C)nc(Nc2ccc(C)cc2C)c1C#N,-1,-8,4.6,11211,1,9,-2
Brc1ccc(Oc2ncc(CN3CCN(c4ccccc4)CC3)s2)cc1,22,-11,3.1,3410,/,/,2
COc1ccc(C)cc1NC(=O)CSc1nc2ccccc2nc1N1CC(C)OC(C)C1 (stereo unspecified),-8,-13,-7.8,5047,7,-2,-5
Cc1cc(-c2ccccc2)nc(Oc2cccc(C(F)(F)F)c2)c1S(C)(=O)=O,23,-20,5.5,3875,/,/,6

Assay outcomes (PubChem)

This is a random part of the collection. Share with any hit: about 4%.
